# NPYLR7 agonist: mosquito NPYLR7 agonism. AID 1259423. 270,000 tested, 0.15% active. activation, % at 10 µM. HEK293T NPYLR7/Galpha15, GCaMP6s calcium fluorescence; in the data active = activation above about 40%;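 note: 0% = vehicle and 100% = reference agonist at the receptor; some compounds past the cut are filed as inactive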
# NPYLR7 agonist max-min: further read-out of NPYLR7 agonist, marked with its call; activation, %; measured here: Max-Min RFU normalised activation; some inactives read as strong as hits;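 span of the calcium signal over five minutes; 0% = vehicle and 100% = native peptide agonist; compound fluorescence can raise it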
# Starred values were filed as active, the others as inactive. This is a subset; rates above refer to the full screens.
# Values run as follows: NPYLR7 agonist | NPYLR7 agonist max-min
C#CCNC(=O)c1ccc(=O)n(Cc2nc(C)c3ccccc3n2)c1
 : 9 | 5
Cc1cc(NC(=O)c2ccco2)sc1C(=O)Nc1ccc2c(c1)CCC2
 : -2 | -3
Cc1cc(C(=O)Cn2ccsc2=N)c(C)n1C1CC1
 : 5 | 9
CC(=O)N1C[C@H]2[C@H](O)[C@@H]3C[C@H](C(=O)O)[C@@H](O3)[C@H]2C1
 : 5 | 15
COC(=O)c1cccc(C(=O)N2CCCC(CCC(=O)N3CCN(C)CC3)C2)c1 (stereo unspecified)
 : 2 | 0
CCNC(=O)Nc1ccc(N(C)C)c(CN(CC2CCCO2)C(=O)NC(C)(C)C)c1 (stereo unspecified)
 : 19 | 26
O=C(c1cc(=O)[nH]c2ccccc12)N1CCN(Cc2cccc(Cl)c2)CC1
 : 8 | 2
CC(=O)c1cccc(NC(=O)c2cc(=O)c(OCc3ccccc3)cn2C)c1
 : 2 | 1
CCCCN(CC(=O)Nc1c(-c2ccccc2)c(C)nn1-c1ccc(OC)cc1)C(=O)Nc1ccc(Cl)cc1Cl
 : 9 | 14
O=c1[nH]nc(SCc2cc(Cl)ccc2Cl)c(=O)[nH]1
 : 1 | -1
COc1ccccc1-n1c(SCC(N)=O)nnc1N1CCCCC1
 : 2 | 1
N#Cc1ccc(-c2cccs2)nc1SCC(=O)c1ccc(Cl)cc1Cl
 : -8 | -14
O=C(c1ccc(Cl)cc1)C1CCCN(C2CCN(c3ccc4c(c3)OCO4)CC2)C1 (stereo unspecified)
 : 4 | 5
CCS(=O)(=O)N1CCc2c(nc(-c3ccccn3)[nH]c2=O)C1
 : 1 | -3
CCOC(CCNC(=O)N1CC2CCC1C2)C(C)C (stereo unspecified)
 : 9 | 6
Cc1ccc2cc(CCNC(=O)CC(C)(C)C)c(=O)[nH]c2c1C
 : 2 | 0
NC(=O)c1nc(-c2ccc([N+](=O)[O-])cc2)nc2c1[nH]c(=O)n2-c1cccc(Cl)c1
 : 7 | 12
COc1ccc(C2CC(c3ccc(Br)cc3)=NN2C(=O)c2ccc(Nc3nc(-c4ccccc4)c4cc(Cl)ccc4n3)cc2)cc1 (stereo unspecified)
 : -13 | -1
CCOCCCN(CC(=O)N(Cc1ccc2c(c1)OCO2)Cc1ccc(C)o1)C(=O)c1ccc(Cl)cc1
 : 13 | 18
CCOC(=O)N1CCN(C(C)C(=O)NC(=O)NC23CC4CC(CC(C4)C2)C3)CC1 (stereo unspecified)
 : 11 | 5
COc1ccc(N2C(=O)C(c3c(C(C)C)[nH]n(-c4ccc(F)cc4)c3=O)=C(N3CCOCC3)C2=O)c(OC)c1
 : 8 | 22
CCN(CC(=O)N1CCc2sccc2C1c1ccc(Cl)cc1Cl)S(=O)(=O)c1ccc2ccccc2c1 (stereo unspecified)
 : -1 | 5
O=C(CN1CCc2sccc2C1c1ccc(Cl)cc1)N1CCN(C(=O)c2cccc(Br)c2)CC1 (stereo unspecified)
 : 8 | -3
Cc1ccc(NC(=O)CSc2nc3c(c(=O)n2-c2cc(C)cc(C)c2)SCC3)cc1
 : -3 | -11
CCC(CC)n1ncc(C)c1NC(=O)c1cccc(C#CC(C)(C)O)c1
 : 7 | -4
CC(=O)N(C)CC1=CCCN(Cc2ccc(S(C)(=O)=O)cc2)C1
 : 9 | 3
CCn1nnc2cc(C(=O)NCCC3CCCO3)ccc21 (stereo unspecified)
 : 12 | 10
S=c1[nH]nc(-c2ccco2)n1-c1ccccc1
 : -9 | -12
CCOc1cccc2sc(N(CCn3nc(C)cc3C)C(=O)c3cccs3)nc12
 : -18 | -21
CCc1nc([C@@H]2C[C@H](NC(=O)c3ccccc3)C[C@H](C(C)C)O2)c(C)[nH]1
 : 8 | 2
Cc1ncoc1C(=O)N1CCc2c([nH]c3ccccc23)C1c1cccc(C(F)(F)F)c1 (stereo unspecified)
 : 1 | -3
C#CCCC(=O)N1CCC(n2c(Cc3ccccc3)nc3ccccc32)CC1
 : -1 | -2
COCCNc1nc2cc(-c3ccccc3)sc2c(=O)n1C
 : 9 | 5
COc1ccc(C2=NN(c3nc(-c4ccccc4)c4cc(C)ccc4n3)C(c3ccc(Br)cc3)C2)cc1 (stereo unspecified)
 : 8 | 21
CCC(C)OC(=O)C1=C(C)NC2=C(C(=O)CC(c3ccccc3)C2)C1c1cccc(OC)c1OC (stereo unspecified)
 : 5 | 4
COc1cccc2cc(-c3csc(Nc4ccc(O)cc4)n3)c(=O)oc12
 : 7 | 4
O=C(Nc1ncc2c(n1)C[C@@H](Cc1ccccc1)NC2=O)c1cccc(F)c1
 : 19 | 10
O=C(c1cccc(Cl)c1)C1CCCN(S(=O)(=O)c2ccc(F)c(F)c2)C1 (stereo unspecified)
 : 1 | -3
CN(C)c1nc2c(c(=O)[nH]1)CCN(C(=O)c1n[nH]c3c1CCC3)C2
 : 5 | 4
Nc1nc(N2CCCCC2)nn1C(=O)CCC1CCCC1
 : 7 | 1
COC(=O)c1c(NC(=O)CSc2nnc3ccccn23)sc2c1CCCCC2
 : 0 | -7
CC(C)CCNC(=O)NC(=O)CSc1ncn[nH]1
 : 2 | 11
O=C(C1CNCCN1C(=O)CCc1cccnc1)N1CCOCC1 (stereo unspecified)
 : -5 | -7
CCn1cc(NC(=O)Nc2ccc(C(C)=O)cc2)c2ccccc21
 : 22 | 7
CC(=O)c1ccc(OCC(O)CN2CCN(c3ccc(F)cc3)CC2)cc1 (stereo unspecified)
 : -7 | -6
CC(C)NC(=O)CCc1nnc(-c2ccccc2)o1
 : 3 | 2
CN(C)CCN(C)[C@H]1[C@@H]2OC[C@@H](O2)[C@@H](N(C(=O)Nc2cccc(C(F)(F)F)c2)C(=O)Nc2cccc(C(F)(F)F)c2)[C@@H]1O
 : -6 | -12
COc1ccc(C)cc1S(=O)(=O)Nc1ccc(Nc2cc(-n3ccnc3)ncn2)cc1
 : -13 | -22
O=c1cc(-c2cccc3c2Sc2ccccc2S3)oc(N2CCOCC2)c1
 : 2 | 0
Nc1nc(N)nc(CSc2nnc(N3CCCC3)n2C2CC2)n1
 : 4 | 2
COc1ccc(Br)c(NC(=O)Cc2ccc(C)cc2)c1
 : 0 | -2
C=CCN(CC(=O)N(CCc1ccccc1)Cc1ccc(C)o1)C(=O)C1CCCC1
 : -3 | -2
OCCC#Cc1ccc(CN2CCCC3(CCNCC3)CC2)cc1
 : 7 | 6
Cc1ccc2ccccc2c1CN1CCOCC(CN(C)C)C1 (stereo unspecified)
 : 12 | 3
COc1ccc(CCOc2nc(-c3ccc(OC)cc3)n(-c3ccc(NS(=O)(=O)c4ccc(Cl)cc4)cc3)n2)cc1
 : 0 | 4
CCOc1cc(CNC(CC)CO)c(Br)cc1OC1CCCC1 (stereo unspecified)
 : -10 | -15
c1ccc(Nc2nc3nonc3nc2Nc2ccccc2)cc1
 : -2 | -2
COC(=O)C1CC2(CCN(C(=O)/C=C/c3ccoc3)CC2)c2ccccc21 (stereo unspecified)
 : -1 | 23
COc1ccc(C)cc1NC(=O)CNC(=O)C1(C)CCCO1 (stereo unspecified)
 : 7 | 5
O=C(Nc1cccc(Cl)c1)C1COc2ccc(Cl)cc2C1 (stereo unspecified)
 : 0 | 0

# An excerpt from above in order of molar mass, smallest number first.
# Values run as follows: NPYLR7 agonist | NPYLR7 agonist max-min
c1ccc(Nc2nc3nonc3nc2Nc2ccccc2)cc1
 : -2 | -2
CCn1cc(NC(=O)Nc2ccc(C(C)=O)cc2)c2ccccc21
 : 22 | 7
COc1cccc2cc(-c3csc(Nc4ccc(O)cc4)n3)c(=O)oc12
 : 7 | 4

# (listing goes on)
# Values run as follows: NPYLR7 agonist | NPYLR7 agonist max-min
COc1ccc(NC2=C(Sc3ccc(N)cc3)C(=O)N(C(C)C)C2=O)cc1
 : 17 | 5
Cc1ccc(Cc2nc(N3CCCN(S(=O)(=O)c4ccc(Cl)c([N+](=O)[O-])c4)CC3)c3c(-c4cccnc4)noc3n2)cc1
 : 14 | 17
Cc1nc(C)c(NC(=O)C(C)Cc2c(C)nn(C)c2C)s1 (stereo unspecified)
 : 2 | 2
CN(C(=O)CN1C(=O)c2ccccc2C1=O)C1CCCCC1
 : -6 | -10
C=CSc1sc(Cl)c(N2CCCCCC2)c1[N+](=O)[O-]
 : 0 | -4
CN(C)c1cc(N2CCN(c3ccc(S(C)(=O)=O)cc3F)CC2)ncn1
 : 25 | 14
FC(F)(F)c1nc(N2CCN(Cc3ccc(Cl)s3)CC2)c2ccccc2n1
 : 9 | 7
O=S(=O)(NCc1ccc2c(c1)OCO2)c1ccc(Cl)cc1
 : -4 | -3
O=C(COc1ccc(Cl)cc1Cl)NN=Cc1cc(Br)ccc1O
 : -3 | -8
COc1ccc(C(CC(=O)NCc2cccnc2)c2cn(C)c3ccccc23)cc1OC (stereo unspecified)
 : 5 | 14
COC(=O)CCCCCCCCC(=O)NCC(=O)N1CCC(C(=O)Nc2ccc(OC)cc2)CC1
 : 34 | 28
Cn1c(=O)c2c(nc3n2CC(c2ccc(F)cc2)=NN3CCN2CCCCC2)n(C)c1=O
 : 16 | 16
CCOc1ccc(OCCOc2ccc(Cl)cc2)cc1
 : 25 | 12
CN(Cc1ncc[nH]1)C(=O)CSC12CC3CC(CC(C3)C1)C2
 : 0 | -4
O=c1cc(N2CCCC2c2ccc3c(c2)OCCO3)nc2ccccn12 (stereo unspecified)
 : -5 | -4
CC(C(=O)NC1CCCC1)N1CCN(c2cncc(Cl)n2)CC1 (stereo unspecified)
 : 9 | 3
CCc1nc2n(n1)C(=O)C(C(c1ccc(C)cc1)N1CCCCC1)S2 (stereo unspecified)
 : 0 | 38
CNCC(O)Cn1cc(C)c(C(C)=O)c1C (stereo unspecified)
 : 3 | 0
Cc1ccc(-c2csc(-n3[nH]c(C)c(N=Nc4ccccc4C(F)(F)F)c3=O)n2)cc1
 : -7 | -12
COc1ccc(CN2C[C@H](O)C[C@H]2c2nc(-c3ccc(F)cc3)no2)cc1
 : -4 | -12

# Taken from above:
# For NPYLR7 agonist, `O=C(COc1ccc(Cl)cc1Cl)NN=Cc1cc(Br)ccc1O` reads -3
# For NPYLR7 agonist, `Cn1c(=O)c2c(nc3n2CC(c2ccc(F)cc2)=NN3CCN2CCCCC2)n(C)c1=O` reads 16
# For NPYLR7 agonist max-min, `COc1ccc(C(CC(=O)NCc2cccnc2)c2cn(C)c3ccccc23)cc1OC` (stereo unspecified) reads 14

# Going on with the list.
# Values run as follows: NPYLR7 agonist | NPYLR7 agonist max-min
COc1cccc(OS(=O)(=O)c2ccccc2F)c1
 : 4 | 5
O=C(c1ccc(N2CCSCC2)nc1)N1CCC(N2CCOCC2)CC1
 : -3 | -6
CS(=O)(=O)c1ccc(-c2nc3ccccc3n2CCO)cc1
 : -6 | -6
Cc1nnc2c(SC(C)C)nc3ccccc3n12
 : 6 | 4
O=c1cc(-c2ccccc2)oc2c(O)c(O)ccc12
 : -1 | -11
COCC(=O)Nc1ccc(N(C)C)c(CN(Cc2ccc(F)cc2)C(=O)COC)c1
 : -4 | -1
O=C(Nc1ccc(-c2noc(=O)[nH]2)cc1)N1CCCC2CCCC21 (stereo unspecified)
 : 4 | 2
CN(c1ccccc1)N1CC(C(=O)NCCc2ccc(O)cc2)CC1=O (stereo unspecified)
 : -4 | -15
O=C(c1cccnc1Oc1ccccc1)N1CCC(c2ccccc2)CC1
 : 0 | -6
Clc1ccccc1OCc1nc(-c2ccccn2)no1
 : 0 | -4
CN(C)CC1(O)CCCN(C(=O)c2ccc[nH]2)C1 (stereo unspecified)
 : 1 | 1
Cc1ccc2c(c1)CCN1C(=O)CN(S(=O)(=O)c3ccc(F)c(Cl)c3)CC21 (stereo unspecified)
 : 3 | 2
CC(=O)N1CCc2c(sc(NC(=O)c3ccccc3)c2-c2nc3ccccc3s2)C1
 : 3 | 2
CN(C)c1cccc(C(=O)N2CCC(N3CCC(C(=O)NC4CC4)CC3)CC2)c1
 : 4 | -1
COC1O[C@@H]2O[C@]3(C)CC[C@H]4[C@H](C)CC[C@@H]([C@H]1C)[C@@]24OO3 (stereo partly specified)
 : -7 | 1
O=C(C1CCCCC1)N1C[C@@H](CO)[C@@H]2Oc3c(F)cccc3[C@@H]21
 : -10 | -5
COC(=O)c1ccc(OC(=O)c2cc(Cl)c(OC(C)C)c(OC)c2)cc1
 : 1 | -1
O=C(O)CNc1ccccc1C(=O)N1CCC(O)(c2ccc(F)cc2)CC1
 : 31 | 17
Cc1cc(C)c(C#N)c(SCc2ccc(Cl)cc2)n1
 : 7 | 5
CNC(=O)c1cc(OC)ccc1NC(=O)c1cccc(C(=O)OC)c1
 : -2 | -2
COc1ccc(-n2c(SCC(=O)Nc3ccc(C)cc3)nc3c(c2=O)SCC3)cc1OC
 : -4 | -6
COc1ccc(-c2nc(C=CC(=O)N3CCCC4CCCCC43)cs2)cc1 (stereo unspecified)
 : 5 | 4
CCCC(=O)OCC(O)CN(Cc1ccc(F)cc1)Cc1ccccc1OC (stereo unspecified)
 : 19 | 9
Cc1nc2c(-c3ccccc3)cnn2c(N2CCOCC2)c1C
 : 1 | -1
Cc1ccc2oc(-c3cc(NC(=O)c4cccc(F)c4)ccc3O)nc2c1
 : 13 | 0
CSc1ncccc1C(=O)N1CCc2c(nc(N(C)C)[nH]c2=O)C1
 : 3 | 0
O=C(Nc1ccc(CNc2ncnc3cc(Cl)ccc23)cc1)C1CC1
 : 8 | 2
CCOc1ccc(-n2nnnc2CNC(=O)Cc2cccc3ccccc23)cc1
 : 15 | 11
O=C1CN(C(=O)c2c3c(nc4cc(Br)ccc24)CCCC3)CCN1
 : 2 | 22
Cc1[nH]n(-c2ccccc2)c(=O)c1C1=C([n+]2ccccc2)C(=O)N(C(C)C)C1=O
 : -1 | 0
COC(=O)C1=NOC2C(=O)N(c3ccc(Br)cc3)C(=O)C12 (stereo unspecified)
 : 11 | 9
Cc1cc([N+](=O)[O-])c(C)cc1-c1ccc(/C=N\n2cnnc2)o1
 : -6 | -13
CCOC(=O)CC1=C(C(=O)OCC)C(c2ccccc2[N+](=O)[O-])C(C#N)C(=N)O1 (stereo unspecified)
 : 1 | -3
Cc1ccc(Cl)cc1NC(=O)c1ccc(CSc2nncn2C)o1
 : 5 | 1
COc1ccc(-c2nc(=S)[nH][nH]2)cc1
 : -4 | -9
Cc1cccc(C(=O)Nc2cc(-c3cccs3)nn2-c2nc(C)cc(=O)[nH]2)c1
 : 1 | 1
O=C1CC(c2ccccc2C(F)(F)F)c2ccc3ccccc3c2N1 (stereo unspecified)
 : -8 | -12
